From PubChem BioAssay
AF4-AF9 inh – blocks AF4 peptide binding to human AF9. P42568. AlphaScreen, biotin-AF4 peptide binding to FLAG-AF9. inhibition, % at 10 µM. actives 0.47% (n = 350,000). AID 651704;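 active = every replicate reaching a set inhibition limit, whatever the replicate mean, cut at about 25% in these data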;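 also: 0% = plate neutral control median and 100% = total signal loss; the record names both 10 and 1 µM as test concentration; the first replicate is given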
Target sequence (P42568 whole entry, looked up): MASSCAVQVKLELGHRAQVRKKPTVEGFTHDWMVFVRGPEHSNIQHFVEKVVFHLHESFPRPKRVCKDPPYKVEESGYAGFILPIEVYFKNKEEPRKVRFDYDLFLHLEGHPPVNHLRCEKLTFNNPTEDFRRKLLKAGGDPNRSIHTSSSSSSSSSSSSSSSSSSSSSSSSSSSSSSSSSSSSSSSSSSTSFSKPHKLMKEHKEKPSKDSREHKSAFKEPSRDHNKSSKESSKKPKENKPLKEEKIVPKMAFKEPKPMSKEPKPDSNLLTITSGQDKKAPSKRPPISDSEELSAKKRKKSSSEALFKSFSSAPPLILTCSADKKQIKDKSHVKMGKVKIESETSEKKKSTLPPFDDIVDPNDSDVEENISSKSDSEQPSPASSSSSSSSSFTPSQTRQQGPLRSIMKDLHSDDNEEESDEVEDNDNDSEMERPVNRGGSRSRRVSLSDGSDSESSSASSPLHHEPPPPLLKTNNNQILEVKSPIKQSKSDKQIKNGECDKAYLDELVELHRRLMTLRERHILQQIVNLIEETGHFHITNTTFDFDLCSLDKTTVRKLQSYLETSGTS
rRNA inh HTS – inhibitors of bacterial rRNA selective over humanized ribosomes. E. coli WT GFP vs humanized-ribosome RFP mutants, fluorescence, 24 h; stronger effect = lower value; DMSO median 0, no signal -100. GFP signal change (wild-type ribosome), % (test concentration not listed). actives 1.6% (n = 350,000);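 active = significant combined selectivity score with lowered wild-type GFP, culture density cut under 30%, mutant RFP and density less affected; inactive = any of these conditions unmet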; also: one replicate is shown; some compounds called inactive have numbers as strong as hits
rRNA inh HTS OD600 – further read-out of rRNA inh HTS, marked with its call; OD600 change, %; measured here: OD600 growth;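 optical density of the mix in the first replicate; 0 = DMSO median and -100 = no signal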
rRNA inh HTS RFP – recorded beside rRNA inh HTS, whose call it bears; RFP signal change, %; measured here: RFP humanized mutant strains;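 first replicate; 0 = DMSO median and -100 = no signal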
* = called active by the depositor. Only part of the results is shown; count on the stated rates, not on these rows.

item	Compound	AF4-AF9 inh	rRNA inh HTS	rRNA inh HTS OD600	rRNA inh HTS RFP
1	CO[C@@H]1CN(C)C(=O)c2cc(NC(C)=O)ccc2OC[C@@H](C)N(C(=O)Cc2cccnc2)C[C@H]1C	4.5	1.8	2.2	-0.1
2	CCC(=O)N1C[C@H](C)[C@H](OC)CN(C)C(=O)c2cc(NS(C)(=O)=O)ccc2OC[C@H]1C	-1.1	1.0	-0.2	-1.7
3	C[C@@H]1CCCCO[C@@H](CN(C)Cc2ccncc2)[C@H](C)CN([C@H](C)CO)C(=O)c2cc(NS(=O)(=O)c3cn(C)cn3)ccc2O1	-2.3	4.0	6.2	-3.6
4	COC(=O)c1cc2c(c3c4cc(F)ccc4n(S(=O)(=O)c4ccc(C)cc4)c13)C(=O)N(c1ccc(OC)cc1)C2	-1.8	0.9	3.9	-5.0
5	CCCC(=O)N1CCC2(CC1)CN(Cc1ccncc1)[C@@H](CO)c1[nH]c3cc(OC)ccc3c12	2.7	2.1	-0.1	7.8
6	Cc1noc(C)c1NC(=O)N(C)C[C@@H]1OCCCC[C@H](C)Oc2ccc(NC(=O)Nc3ccc(C(F)(F)F)cc3)cc2C(=O)N([C@@H](C)CO)C[C@@H]1C	4.6	-2.5	3.4	1.2
7	C[C@@H]1CN([C@H](C)CO)S(=O)(=O)c2ccc(-c3ccccc3)cc2O[C@@H]1CN(C)S(=O)(=O)c1ccccc1F	-0.1	2.7	-3.4	0.5
8	N#C[C@@H]1[C@H](c2ccccc2C2=CCCC2)[C@@H](CO)N1C(=O)C1CC1	-1.6	-1.0	-1.9	-2.0

Entries of single compounds, quoted from the list. Values in the order: AF4-AF9 inh	rRNA inh HTS	rRNA inh HTS OD600	rRNA inh HTS RFP
`C[C@@H]1CN([C@H](C)CO)S(=O)(=O)c2ccc(-c3ccccc3)cc2O[C@@H]1CN(C)S(=O)(=O)c1ccccc1F` across the screens: -0.1	2.7	-3.4	0.5
`CCC(=O)N1C[C@H](C)[C@H](OC)CN(C)C(=O)c2cc(NS(C)(=O)=O)ccc2OC[C@H]1C` across the screens: -1.1	1.0	-0.2	-1.7

As entered above:
`CO[C@@H]1CN(C)C(=O)c2cc(NC(C)=O)ccc2OC[C@@H](C)N(C(=O)Cc2cccnc2)C[C@H]1C` @ rRNA inh HTS = 1.8
`COC(=O)c1cc2c(c3c4cc(F)ccc4n(S(=O)(=O)c4ccc(C)cc4)c13)C(=O)N(c1ccc(OC)cc1)C2` @ rRNA inh HTS = 0.9
`C[C@@H]1CCCCO[C@@H](CN(C)Cc2ccncc2)[C@H](C)CN([C@H](C)CO)C(=O)c2cc(NS(=O)(=O)c3cn(C)cn3)ccc2O1` @ AF4-AF9 inh = -2.3
`C[C@@H]1CN([C@H](C)CO)S(=O)(=O)c2ccc(-c3ccccc3)cc2O[C@@H]1CN(C)S(=O)(=O)c1ccccc1F` @ rRNA inh HTS RFP = 0.5

(further entries)
item	Compound	AF4-AF9 inh	rRNA inh HTS	rRNA inh HTS OD600	rRNA inh HTS RFP
9	COc1ccc(F)cc1-c1cc(C(=O)N2CCc3ccccc3C2)[nH]n1	-8.8	-8.2	-9.5	4.2
10	C[C@H](CO)N1C[C@H](C)[C@H](CN(C)S(C)(=O)=O)Oc2ccc(NS(C)(=O)=O)cc2C1=O	-2.0	2.0	5.2	0.4
11	Cc1ccc(-c2cnc3c(c2)C(=O)N([C@H](C)CO)C[C@@H](C)[C@@H](CN(C)CC2CCCC2)O3)cc1	-4.2	0.8	-1.4	-3.1
12	CCC(=O)N1[C@H](CO)[C@@H](c2ccccc2)[C@@H]1CN(CC)C(=O)c1ccccc1	-2.4	1.1	1.5	1.0
13	O=C(CSCC(=O)NN=Cc1ccccc1)NN=Cc1ccccc1	6.7	-1.5	1.1	1.7
14	CCCN1C[C@@H](C)[C@H](OC)CN(C)C(=O)c2ccc(NC(=O)Nc3ccccc3F)cc2OC[C@@H]1C	1.6	2.5	-2.0	-1.4
15	COC(=O)c1ccc2nc(-c3ccc(C)cc3)c(Cc3ccc(C)cc3)n2c1	-0.8	-1.6	1.7	1.3
16	CCN(C[C@H]1[C@H](c2ccccc2)[C@H](CO)N1C(C)=O)C(=O)NC1CCCC1	-1.7	2.2	7.6	0.9
17	CC(C)NC(=O)N(C)C[C@@H]1Oc2ccc(NC(=O)CCN3CCOCC3)cc2C(=O)N([C@@H](C)CO)C[C@@H]1C	-13.6	4.4	6.0	-3.2
18	CN1c2ccc(-c3cccc(C#N)c3)cc2[C@@H]2[C@@H](CCN2C(=O)C2CCCCC2)[C@@H]1CO	9.4	-9.0	-36.4	19.1
19	CC1(Cc2cc(Cl)ccc2C(F)(F)F)C(=O)Nc2cc(C(F)(F)F)ccc21 (configuration not stated)	-3.2	5.8	2.3	2.2
20	COc1cccc(-c2ccc3c(c2)[C@H]2[C@H](CCN2C(=O)c2ccccc2F)[C@H](CO)N3C)c1	1.3	-10.8	-17.0	5.0
21	COc1ccc2c3c(n(C)c2c1)[C@H](CO)N(CC1CC1)CC31CN(C(=O)c2ccccc2)C1	0.6	-4.3	0.2	2.6
22	CC(=O)NC[C@@H]1[C@@H](c2ccc(-c3ccccc3F)cc2)[C@H](CO)N1C(=O)C1CC1	0.7	-3.6	-6.4	4.6
23	O=C(Cc1ccccc1)N1C[C@H]2[C@@H](c3ccccc31)[C@H](CO)N2C(=O)Cc1ccccc1	-1.7	-0.2	-5.3	-0.8
24	COc1cccc(NC(=O)C[C@H]2CC[C@@H]3[C@H](COc4ccc(NC(C)=O)cc4C(=O)N3C)O2)c1	1.7	1.8	2.0	-2.0
25	Cc1ccc(S(=O)(=O)N(C)C[C@@H]2OCCCC[C@@H](C)Oc3ccc(NC(=O)CCCCCC(=O)Nc4ccccc4N)cc3C(=O)N([C@H](C)CO)C[C@@H]2C)cc1	-1.4	-0.6	10.1	-2.8
26	COc1cccc(S(=O)(=O)N2CCCCN3[C@H](CO)[C@H](c4ccc(-c5ccccc5)cc4)[C@@H]3C2)c1	-6.3	-3.1	-12.5	1.5
27	COC(=O)C[C@@H]1C[C@@H]2c3cc(NC(=O)c4cccnc4)ccc3O[C@@H]2[C@@H](CO)O1	-2.1	-0.1	15.2	-6.7
28	CN1CCN(C(=O)C[C@@H]2C=C[C@@H](NC(=O)Nc3ccccc3F)[C@H](CO)O2)CC1	-0.3	0.5	-3.2	-1.5
29	Cc1ccccc1-c1cc2nc(NCc3ccc(N(C)C)cc3)n(C)c(=O)c2s1	9.7	-16.9	1.6	9.5
30	COc1ccc2c3c(n(C)c2c1)[C@@H](CO)N(Cc1cccc(Cl)c1)CC31CN(C(C)=O)C1	0.6	-3.3	-3.1	-3.2
31	O=C(N[C@H]1CC[C@@H](CC(=O)N2CCc3ccccc3C2)O[C@H]1CO)C1CC1	-5.7	0.4	-4.5	-2.3
32	C[C@@H]1CN([C@H](C)CO)C(=O)c2cc(NC(=O)Nc3ccccc3)ccc2O[C@H]1CN(C)S(=O)(=O)c1cccs1	-4.6	-3.9	-2.1	-1.4
33	COc1cccc(CN(C)C[C@H]2OCc3cn(nn3)CCCC(=O)N([C@H](C)CO)C[C@@H]2C)c1	-0.9	-1.2	0.9	1.3
34	CCCNC(=O)C[C@H]1CC[C@@H]2[C@H](COc3ccc(NC(=O)Nc4c(C)noc4C)cc3C(=O)N2C)O1	-0.4	-1.7	6.7	-2.5
35	CCCc1cn(CC[C@@H]2CC[C@@H](NC(=O)C3CCCC3)[C@@H](CO)O2)nn1	-1.2	3.8	11.8	0.1
36	C/C=C/c1ccc2c(c1)O[C@@H](CN(C)C(=O)NC1CCCC1)[C@H](C)CN([C@@H](C)CO)S2(=O)=O	-1.7	-1.5	-7.8	-1.7
37	CNC(=O)C[C@H]1CC[C@@H]2[C@@H](COc3ccc(NC(=O)Nc4cc(C)cc(C)c4)cc3C(=O)N2C)O1	3.8	-2.5	-8.4	2.7
38	C[C@@H](NC(=O)C[C@@H]1CC[C@H](NC(=O)C2CCOCC2)[C@@H](CO)O1)c1ccccc1	1.3	0.0	6.5	0.1
39	O=C(Nc1ccc2c(c1)OCO2)N[C@@H]1CC[C@H](CCNC(=O)C2CCOCC2)O[C@@H]1CO	-0.9	-0.8	4.4	0.3
40	C[C@@H]1CN([C@@H](C)CO)C(=O)Cc2cc(NC(=O)Cc3cn(C)c4ccccc34)ccc2O[C@@H]1CN(C)CC1CCCCC1	13.0	0.4	3.4	4.9
41	C/C=C/c1ccc([C@H]2[C@H](CO)N(C(=O)CN(C)C)C23CN(C(=O)C2CC2)C3)cc1	1.7	3.3	2.9	-1.9
42	O[C@@H]1CN(Cc2cccs2)[C@@H](c2ccccc2)C[C@H]1n1cc(C2CC2)nn1	-2.4	2.1	3.8	-1.2
43	C[C@@H]1CCCCO[C@@H](CN(C)Cc2ccc(C(F)(F)F)cc2)[C@@H](C)CN([C@H](C)CO)C(=O)c2cc(NC(=O)NC3CCCCC3)ccc2O1	0.5	1.0	3.7	-0.6
44	O=C(c1ccccc1F)N1CC(=O)N2[C@@H](CO)[C@@H](c3ccc(C#Cc4ccc(F)cc4)cc3)[C@@H]2C1	0.1	-50.1	-70.8	-8.9
45	O=C(N[C@H]1CC[C@H](CCNC(=O)C2CCC2)O[C@H]1CO)c1ccncc1	-3.5	1.2	1.9	-2.6
46	CNC(=O)C1CCC(=O)N1Cc1c[nH]c2ccccc12 (configuration not stated)	-6.2	4.2	10.2	-1.2
47	C[C@@H]1CN([C@@H](C)CO)C(=O)Cc2cc(NC(=O)CCCCCC(=O)Nc3ccccc3N)ccc2O[C@@H]1CN(C)Cc1ccc(-c2ccccc2)cc1	1.6	-2.2	5.8	2.7
48	CCc1cnc(N2[C@H](C#N)[C@H](c3ccccc3)[C@H]2CO)s1	-0.4	-0.8	-3.2	-0.3
49	C[C@@H]1CN([C@H](C)CO)C(=O)c2cccc(NC(=O)Nc3cccc4ccccc34)c2O[C@H]1CN(C)S(=O)(=O)c1ccc(F)cc1	0.3	-0.5	-4.5	-2.4
50	CN1C(=O)c2cc(NC(=O)Cc3cccs3)ccc2OC[C@H]2O[C@H](CC(=O)NCCc3ccncc3)CC[C@@H]21	-3.1	4.7	14.4	-0.7
51	Cc1noc(C)c1NC(=O)Nc1ccc2c(c1)C(=O)N([C@@H](C)CO)C[C@@H](C)[C@H](CN(C)Cc1ccc(C(F)(F)F)cc1)OCCCC[C@@H](C)O2	6.6	0.1	8.7	3.0
52	C[C@H]1CN([C@@H](C)CO)C(=O)c2cc(NC(=O)C3CC3)ccc2O[C@@H]1CN(C)Cc1ccncc1	-5.4	0.0	-3.0	1.4
53	C[C@@H]1CN([C@H](C)CO)S(=O)(=O)c2ccc(-c3cccc(F)c3)cc2O[C@H]1CN(C)C(=O)c1cccc(F)c1	3.6	-8.9	-21.9	5.6
54	COCCNc1nc(Oc2ccccc2)c2sccc2n1	-0.5	-50.4	-71.8	-13.3
55	C[C@H](CO)N1C[C@H](C)[C@@H](CN(C)Cc2ccccc2)Oc2ncc(-c3cccc(C#N)c3)cc2C1=O	0.6	1.3	16.6	-1.2
56	C[C@@H]1CN([C@@H](C)CO)S(=O)(=O)c2ccc(-c3cccc(F)c3)cc2O[C@@H]1CN(C)S(C)(=O)=O	0.7	-13.3	-11.4	1.6
57	CO[C@H](CN(C)S(=O)(=O)c1ccc(F)cc1)[C@H](C)CN(Cc1ccccc1Cl)[C@@H](C)CO	1.6	-7.7	-27.6	-1.9
58	CCCNC(=O)[C@H]1[C@H](CO)[C@H]2Cn3c(ccc(C4=CCCCC4)c3=O)[C@@H]1N2CCC	-2.0	1.8	1.0	-2.7
59	COCC(=O)N1[C@@H]2Cn3c(ccc(/C=C/c4ccccc4)c3=O)[C@H]1[C@@H](C(=O)N1CCCCC1)[C@@H]2CO	1.6	-0.5	1.0	-2.3
60	O=C(C[C@H]1CC[C@H]2[C@@H](COC[C@@H](O)CN2S(=O)(=O)c2ccccc2Cl)O1)N1CCC(Cc2ccccc2)CC1	4.7	-25.0	-61.6	10.0
61	C[C@@H]1CN([C@@H](C)CO)C(=O)Cc2cc(NS(C)(=O)=O)ccc2O[C@@H]1CN(C)C(=O)NC1CCCCC1	-3.3	1.0	7.0	0.4
62	CCCOc1cccn2c(N(C)C(=O)c3ccccc3F)c(CC)nc12	-3.1	9.2	11.7	2.3
63	C[C@@H]1CN([C@@H](C)CO)S(=O)(=O)c2ccc(-c3ccccc3)cc2O[C@@H]1CN(C)CC1CC1	-0.2	4.0	2.1	0.3
64	C[C@H](O)C#Cc1cnc2c(c1)C(=O)N([C@H](C)CO)C[C@H](C)[C@H](CN(C)Cc1ccc(-c3ccccc3)cc1)O2	1.0	-0.4	-3.2	3.2

Further compounds:
item	Compound	AF4-AF9 inh	rRNA inh HTS	rRNA inh HTS OD600	rRNA inh HTS RFP
65	O=C(C[C@@H]1C=C[C@@H](NS(=O)(=O)c2cccc(F)c2)[C@@H](CO)O1)N1CCCCC1	-2.1	0.9	5.8	-0.2
66	COCCNC(=O)C[C@H]1C[C@H]2c3cc(NC(=O)c4ccc5c(c4)OCO5)ccc3O[C@H]2[C@@H](CO)O1	5.0	0.7	12.2	-1.2
67	O=C(Nc1ccc(F)cc1)N[C@@H]1CC[C@@H](CCNC(=O)c2ccccc2F)O[C@H]1CO	-5.5	-1.8	-2.3	0.2
68	O=C(C[C@@H]1CC[C@H]2[C@@H](COC[C@@H](O)CN2C(=O)c2cccnc2)O1)NCc1ccccc1	-3.6	3.4	15.1	-2.9
